# B2AR ag = beta2AR agonists driving receptor internalization, primary screen, cell-based, FAP fluorogen, flow cytometry | 340,000 compounds, 0.43% hits | response, % (concentration not given with the values) | Beta-2 adrenergic receptor (Homo sapiens), P07550 | Am2.2-beta2AR cells; reference of the scale not given here;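 active means response above a set limit, near 3 SD of response in nonfluorescent compounds, cut at about 42% in these data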;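 further: stock transfer was 100 nL into about 11 µL; a reference agonist was the positive control; negative values mostly stem from fluorescent compounds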
# Target sequence (P07550 whole entry, looked up): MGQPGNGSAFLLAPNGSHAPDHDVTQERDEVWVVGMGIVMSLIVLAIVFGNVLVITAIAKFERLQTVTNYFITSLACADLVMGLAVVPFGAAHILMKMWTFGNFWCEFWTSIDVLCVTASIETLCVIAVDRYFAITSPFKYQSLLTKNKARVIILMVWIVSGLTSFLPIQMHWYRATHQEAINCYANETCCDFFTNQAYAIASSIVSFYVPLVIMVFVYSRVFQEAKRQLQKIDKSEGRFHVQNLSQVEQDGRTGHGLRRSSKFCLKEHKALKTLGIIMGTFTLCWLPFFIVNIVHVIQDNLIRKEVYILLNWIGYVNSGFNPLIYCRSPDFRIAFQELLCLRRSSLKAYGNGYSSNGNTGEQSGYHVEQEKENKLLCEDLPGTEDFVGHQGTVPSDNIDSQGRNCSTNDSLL
# UCH37 DUB inh = inhibitors of human UCH37 deubiquitinase, primary screen, biochemical, Ub-AMC cleavage, fluorescence; Ubiquitin carboxyl-terminal hydrolase isozyme L5 (Homo sapiens), Q9Y5K5; purified proteasome/UCH37; inhibition, % (concentration not given with the values); 330,000 compounds, 0.33% hits; AID 588478, 2011;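 active means mean of two replicates above 20%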;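 further: 0% = compound-free wells with enzyme and 100% = wells lacking proteasome; stock transfer was 100 nL into about 20 µL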
#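 Schedule: 30 min plus 25 min, room temperature / Material: human UCH37 within purified proteasomes / Technique: AMC fluorescence intensity at 355/460 nm / Buffer or medium: pH 7.4 Tris-HCl (50 mM) with ovalbumin, ATP-MgCl2, DTT / Controls: wells without proteasome as full block, compound-free enzyme plus substrate as uninhibited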
# LANA-H2A inh = blockers of LANA interaction with H2A/H2B – biochemical, FP readout, HTS, primary screen; AID 2629, 2010; 320,000 compounds, 0.6% hits; cell-free LANA-H2A/H2B peptide, fluorescence polarization; inhibition, % (concentration not given with the values); in the data active means inhibition mostly above about 10%, no sharp cut-off; inactive means mostly below about 6.7%;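 further: stock transfer was 7.5 nL into about 10 µL; 0% = median of vehicle wells and 100% = median of positive control wells; one replicate is shown; the record names a cut of 25% in any replicate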
# HNF4A DNA FP = change in binding of human HNF4A to DNA, primary screen, biochemical, fluorescence polarization, FITC-DNA; Hepatocyte nuclear factor 4-alpha (Homo sapiens), P41235; 1 h; activity change, % at 10 µM; 360,000 compounds, 0.3% hits; in the data active means activity change above about 30%, passing the limit was not always enough;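 further: controls were the assay level and a saturating level of protein; the project sought stronger binding though the title names inhibitors; some compounds called inactive have numbers as strong as hits; positive values seem to mean higher polarization but the record does not say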
# ALR H2O2 inh = inhibitors of human ALR sulfhydryl oxidase, primary screen, biochemical, H2O2 detection, HRP-luminol luminescence, single point; purified ALR, DTT oxidation; inhibition, % (test concentration not listed); 290,000 compounds, 3.8% hits;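 active means mean and each replicate at 75% or more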;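 further: stock transfer was 7.5 nL into about 7.5 µL; 0% = neutral wells and 100% = wells with inactivated enzyme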
# Target sequence (P55789 whole entry, looked up): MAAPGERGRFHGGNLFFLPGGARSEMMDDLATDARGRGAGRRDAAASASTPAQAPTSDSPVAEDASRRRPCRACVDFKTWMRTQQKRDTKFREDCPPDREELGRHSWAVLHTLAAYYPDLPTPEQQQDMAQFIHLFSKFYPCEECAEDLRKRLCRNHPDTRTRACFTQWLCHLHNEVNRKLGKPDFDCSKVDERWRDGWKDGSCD
# FGF22 binding = binders of human FGF22 protein, primary screen, FGF22 synaptogenesis inhibitor project, biophysical, thermal shift, single point | recombinant FGF22 thermal shift, SYPRO orange fluorescence; percent of sucrose octasulfate shift, DMSO zero | calls only at 9.99 µM | 340,000 compounds, 1.5% hits;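 active means melting point raised past a set limit in the mean and every replicate; three in four hits are not shown here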
# Target sequence (Q9HCT0 whole entry, looked up): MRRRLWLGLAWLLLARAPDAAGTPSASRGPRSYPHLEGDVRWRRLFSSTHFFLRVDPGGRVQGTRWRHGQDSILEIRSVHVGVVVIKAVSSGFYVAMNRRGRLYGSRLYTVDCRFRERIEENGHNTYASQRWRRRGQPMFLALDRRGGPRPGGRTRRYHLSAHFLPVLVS
# Ecoli growth = E. coli growth inhibition, primary screen, OD600 | Escherichia coli growth, 23 h; hits give low values | OD600 absorbance (concentration not given with the values) | 330,000 compounds, 0.21% hits;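 active means OD600 absorbance below the run mean of sample wells minus 3.6 SD, in any replicate, cut at about 0.56 in these data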;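 further: stock transfer was 300 nL into about 60 µL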
# * marks the source's active call; other numbers are inactive results; i = inactive; x = not tested or not shown. This is a subset; rates above refer to the full screens.
SMILES,B2AR ag,UCH37 DUB inh,LANA-H2A inh,HNF4A DNA FP,ALR H2O2 inh,FGF22 binding,Ecoli growth
CC(Oc1ccccc1F)C(=O)NCCN1CCCCC1 (stereo unspecified),8.1,-3.1,5.6,-1.9,-22.2,x,0.659
Cc1ccc(C2Nc3cccc4cccc(c34)N2)cc1,11.8,-11.6,2.9,-2.2,-15.0,i,0.666
COc1cc2nc(-c3ccc(Br)o3)oc(=O)c2cc1OC,-5.5,-3.0,4.5,0.1,5.4,x,0.679
CCn1cc(/C=N/NS(=O)(=O)c2ccc(OC)cc2)c(C)n1,-4.0,x,-1.6,-2.7,16.5,x,x
CCOC(=O)C1CCN(CC(O)COC(CC)c2ccccc2)CC1 (stereo unspecified),-7.2,4.4,-5.1,0.9,-0.1,i,0.691
Cc1ccc2c(CN3CCN(CCO)CC3)cc(=O)oc2c1,-3.4,3.7,-1.4,-1.1,-7.3,x,0.666
CN(C)CC/C=C1/c2cc(F)ccc2Sc2ccc(Cl)cc21,14.1,4.0,0.8,8.2,-27.2,i,0.668
CCCNC(=O)NC(=O)CSc1nc2ccccc2c(=O)n1Cc1ccncc1,-12.6,0.7,5.5,0.3,-3.8,i,0.656
O=C1C=CCCC1,-4.8,0.9,4.1,-0.8,-0.9,i,0.666
O=C(Nc1nccs1)c1ccc(COc2ccccc2Cl)o1,-2.9,0.7,0.4,0.2,1.7,i,0.675
c1ccc2c(CSCc3nc4ccccc4[nH]3)cccc2c1,-7.7,1.6,2.0,2.6,98.7*,x,0.65
CS(=O)(=O)c1ccc(Cl)c(NC(=O)CN2CCN(S(=O)(=O)/C=C/c3ccccc3)CC2)c1,9.4,4.4,x,-3.1,x,i,0.682
Cc1cccc(-n2c(C)n[nH]c2=S)c1,4.9,1.0,-10.1,0.0,-5.1,i,0.706
N#Cc1ccccc1/C=C/C(=O)N1CCOCC1,2.6,2.7,-0.4,1.5,x,i,0.729
COc1cccc(C2N(c3ccccc3)CCN2c2ccccc2)c1OC,0.2,-0.8,4.8,0.4,-0.1,i,0.661
CCOc1ccc(NC(=O)NC(=O)N(C(C)C)S(C)(=O)=O)cc1,1.7,3.5,3.7,-0.1,-9.4,i,0.708
CCN(CC)S(=O)(=O)c1ccc(N2CCN(S(=O)(=O)c3ccccc3)CC2)nc1,-0.4,2.3,x,0.7,x,i,0.704
O=C(C[C@H]1C/C=C\C[C@@H](Cc2ccc(F)cc2)C(=O)OC[C@H]2CCCN2C1=O)N[C@H](CO)Cc1ccccc1,4.1,2.3,2.7,-4.6,-17.1,i,x
C/C(Cl)=C\Cn1c(NCCCn2ccnc2)nc2c1c(=O)n(C)c(=O)n2C,-6.1,-9.1,0.8,-1.1,11.7,x,0.729
O=c1oc(CCCO)cc2ccc(C#Cc3ccsc3)cc12,4.2,-17.4,-5.0,2.4,-5.9,i,0.682
COc1ccc(OC)c(S(=O)(=O)Nc2cnc3ccccc3c2)c1,-1.6,3.1,-0.2,3.0,-2.4,x,0.735
O=C(O)/C=C\C(=O)Nc1ccccc1C(=O)N1CCN(c2ccc(Cl)cc2)CC1,1.6,-0.7,-4.1,3.0,21.6,x,0.714
O=C(OCC(=O)N(CCc1ccccc1)Cc1ccccc1)c1cc(S(=O)(=O)N2CCOCC2)ccc1F,8.1,4.0,-4.2,-3.1,5.5,i,0.703
O=C(NC(=O)N1CCCC1)c1csnn1,-0.7,3.1,1.3,-2.9,-7.0,i,0.689
COc1ccc(CCN2CC(C(=O)N(C)CC(=O)Nc3ccc(F)c(F)c3F)CC2=O)cc1OC (stereo unspecified),1.6,0.6,x,-5.5,x,i,0.664
Cc1ccc(S(=O)(=O)N2CCC(C(=O)NC3CC3)CC2)cc1,2.5,5.0,-1.2,-2.1,-4.3,i,0.709
CCc1ccc(NC(=S)N2CCN(c3cccc(OC)c3)CC2)cc1,3.6,1.8,1.8,6.8,-8.0,i,0.668
Cc1nc(NCCc2ccccc2)sc1C(=O)N(C)C,-1.2,4.8,2.3,1.3,-1.1,x,0.674
CC1(C)Cc2ccccc2C(NN=C2CCCC2)=N1,8.9,3.3,-2.4,0.6,0.9,i,0.671
COc1ccc(NS(=O)(=O)c2ccc(C)c(C(=O)OC(C)C(=O)N3CCOCC3)c2)cc1 (stereo unspecified),2.8,2.7,-3.5,-5.2,3.8,i,0.618
CN(C)CCCNc1ncnc2c1cnn2Cc1ccccc1Cl,-5.4,2.6,x,1.4,x,i,0.674
Cc1ccc(F)cc1NC(=O)C1C2CCC(O2)C1C(=O)O (stereo unspecified),9.5,-0.2,1.4,-3.0,4.6,i,0.682
Cc1cccc(NC(=O)c2ccc(NC(=O)c3ccccc3Br)cc2)c1,13.9,2.2,-1.1,2.2,0.1,i,0.667
Cc1ccc(S(=O)(=O)CC(O)CN2CCCC2=O)cc1 (stereo unspecified),-10.5,0.4,-1.8,-2.5,-7.9,x,0.725
COC(=O)CCCNC(=O)OCc1ccc([N+](=O)[O-])cc1,-1.2,3.0,0.6,0.7,-29.6,x,0.703
CCc1nnc(NC(=O)c2ccc(S(=O)(=O)N(CCOC)CCOC)cc2)o1,4.7,5.1,-0.8,1.0,-1.8,x,0.709
COc1ccc2cc(C(=O)NCc3ccccc3CN3CCCC3)ccc2c1,9.4,-7.5,-2.0,4.3,-6.4,i,0.685
COc1ccccc1NC(=O)COc1ccc(/C=N/n2cnnc2)cc1OC,-3.5,x,1.0,-0.4,-9.8,x,x
Cn1c(=O)[nH]c2cc3ccccc3cc21,-3.5,4.3,-4.0,0.4,-6.2,x,0.681
O=S1(=O)CCC(NC(=S)N2CCCCC2)C1 (stereo unspecified),-1.4,-0.1,-0.7,-1.1,-2.4,i,0.68
CCc1ccc(NS(=O)(=O)c2c(C)nc3sc(CC)nn3c2=O)cc1,-1.4,0.4,1.7,-3.5,x,i,0.718
COC(=O)CN(c1ccc2c(c1)OCO2)S(C)(=O)=O,16.3,0.7,2.8,0.8,-5.8,x,0.653
CCn1c(SCC(=O)Nc2nc(C)c(C)s2)nc2cccnc21,11.1,1.8,1.9,-0.4,-5.5,x,0.72
Cc1cc(=O)oc2cc(OCCCC[n+]3ccccc3)ccc12,-2.5,-48.6,-1.8,-3.3,-5.5,i,0.673
O=C1CCc2cc(S(=O)(=O)NCc3ccc(F)cc3)cc3c2N1CC3,-9.4,5.5,x,-2.0,x,x,0.705
CCOc1ccc(NC2=C(Cl)C(=O)N(Cc3ccccc3)C2=O)cc1,-1.5,2.5,-0.7,-2.5,15.0,i,0.616
O=C(O)CSCC(=O)N1CCN(c2ncnc3scc(-c4ccccc4)c23)CC1,-3.7,1.0,-0.9,1.2,-8.6,i,0.641
CCOC(=O)c1cc(C#N)c(N)nc1C,-5.5,-5.9,-2.5,0.0,-23.1,x,0.709

# ALR H2O2 inh: what is marked active above
SMILES	B2AR ag	UCH37 DUB inh	LANA-H2A inh	ALR H2O2 inh	FGF22 binding
c1ccc2c(CSCc3nc4ccccc4[nH]3)cccc2c1	-7.7	1.6	2.0	98.7*	x

# The results go on:
SMILES,B2AR ag,UCH37 DUB inh,LANA-H2A inh,HNF4A DNA FP,ALR H2O2 inh,FGF22 binding,Ecoli growth
CCCCC(=O)Nc1nc2ccc(C(=O)OC)cc2s1,4.9,0.0,4.5,3.3,4.2,i,0.649
Cc1ccc(C(=O)OCC(=O)N2C(C)CCCC2C)cc1S(=O)(=O)N1CCCCC1 (stereo unspecified),6.2,3.3,-5.9,6.6,-11.2,x,0.639
O=C(CCN1C(=O)S/C(=C\c2ccccc2)C1=O)Nc1ccc(O)cc1C(=O)O,3.9,1.9,-2.2,-3.1,47.9,x,0.62
CCOC(=O)C1=C(COC(=O)c2nc(Cl)ccc2Cl)NC(=O)NC1C (stereo unspecified),0.7,0.5,x,1.5,x,i,0.68
Cc1ccc(-c2[nH]ncc2C(=O)c2cccc(F)c2)c(O)c1,-3.0,5.8,-0.4,0.2,21.4,i,0.647
CN(CC(=O)Nc1ccc(N2CCOCC2)cc1)CC(=O)Nc1ccccc1C#N,0.4,2.1,-0.4,2.6,41.1,x,0.645
Brc1ccc(C2=Nc3cccc4cccc(c34)N2)o1,3.4,5.2,-9.9,1.5,-18.6,i,0.67
O=[N+]([O-])c1cccc(Oc2cnccn2)c1,-0.2,4.4,5.5,-3.8,1.3,i,0.672
COc1ccc2nc(SCC(=O)Nc3cc(C)on3)c(C#N)cc2c1,11.5,-10.3,-5.0,2.8,-3.1,i,0.709
CCOc1ccc(CCNC(=O)c2cc3sccc3n2C)cc1OCC,3.8,0.0,-1.7,-4.2,-5.6,x,0.66
CCOc1cc(N2CCOCC2)c(OCC)cc1NC(=O)c1ccccc1C,0.3,2.5,2.7,1.2,-59.4,x,0.664
O=C(Cc1ccccc1)NCC(=O)OCC(=O)c1ccc([N+](=O)[O-])cc1,2.1,1.4,0.4,1.0,x,x,0.712
S=c1[nH]nc(COc2ccccc2)n1/N=C/c1ccc(Br)cc1,3.3,x,1.5,2.9,-6.6,i,x
C=CCNC(=O)C(=O)NCC(c1ccc2c(c1)OCO2)N1CCOCC1 (stereo unspecified),2.4,0.9,-1.9,8.8,-3.9,i,0.703
O=C(CN(C(=O)CNC(=O)c1ccco1)c1ccccc1F)NC1CCCCC1,-11.7,0.7,-2.3,1.4,x,i,0.631
O=C1CCCc2c1nn(-c1ccccc1)[n+]2[O-],-0.5,1.2,-0.4,-1.1,-5.2,i,0.7
CCOC(=O)c1ccc(NC(=O)C2CCCO2)cc1 (stereo unspecified),-0.5,2.9,3.9,-2.6,-9.4,x,0.672
CC(=O)c1cc2c(cc1NC(=O)c1c(-c3ccccc3)noc1C)OCO2,-1.9,-73.1,6.0,0.7,-10.2,x,0.792
Cc1ccc(SCCC(=O)Nc2cccnc2)cc1,-6.5,3.7,1.6,0.5,-2.6,x,0.718
CC(=O)NC(=S)Nc1ccccc1N1CCN(C(=O)c2ccccc2)CC1,-2.2,1.0,-3.6,0.7,3.5,i,0.713
Cc1ccc(-n2c(SCC(=O)NCC3CCCO3)nc3n[nH]c(C)c3c2=N)cc1Cl (stereo unspecified),0.7,1.5,-7.8,-0.6,-0.4,x,0.727
Cc1ccc(S(=O)(=O)NN2C(=O)c3ccccc3NC2c2cccc(O)c2)cc1 (stereo unspecified),-4.3,-200.8,-3.1,-0.9,1.0,i,0.716
COc1cc(-c2cc(C(=O)Nc3ccccc3N3CCOCC3)c3ccccc3n2)cc(OC)c1OC,12.1,-19.1,5.3,0.1,-29.3,i,0.731
Cc1nnc(C)c2c(C)n(-c3ccc4ncccc4c3)c(C)c12,5.3,-35.4,1.3,5.2,-41.9,x,0.696
Cc1ccc(OCCC(=O)OCC(=O)N2CCN(S(=O)(=O)c3ccc(C)cc3C)CC2)cc1,2.6,2.1,5.9,2.5,-1.9,i,0.719
O=C(NCc1ccc2c(c1)OCO2)Nc1cccc(Cl)c1,3.1,2.9,7.3,-1.2,x,x,0.678
COc1cccc(CN(C(=O)c2cccs2)C2CCS(=O)(=O)C2)c1 (stereo unspecified),5.3,4.1,-9.3,1.1,-4.4,i,0.7
Nc1ncnc(Sc2ccccc2)c1[N+](=O)[O-],0.3,7.4,0.6,-3.1,38.3,i,0.721
COc1cc(S(=O)(=O)Nc2ccc3c(c2)C(=O)N(C)C3=O)ccc1NC(C)=O,-1.0,3.1,-1.3,-2.0,x,i,0.674
Cc1ccc(-c2cc(-c3nnc(SCC(=O)NCC(C)C)n3N)c3ccccc3n2)cc1,-39.8,-50.2,2.7,1.7,-13.7,x,0.795
CCOC(=O)c1ccn(CSc2c(F)c(F)cc(F)c2F)n1,0.1,3.5,-0.4,-0.8,-1.7,i,0.672
